Cruzain inh Det: blocks cruzain activity in presence of Triton detergent. purified cruzain, Z-FR-AMC fluorescence, 0.01% Triton. Potency, µM, for the others: max response, negative = inhibition, usual class: inhibitors. hit rate 0.43% among 200,000. P25779;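 note: plate controls were neutral wells for no effect and buffer without enzyme for full effect; nearly all actives have a fitted effect of over 40% in size; top concentration of the series not given in the record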
Target sequence (P25779 123-467 limits assumed): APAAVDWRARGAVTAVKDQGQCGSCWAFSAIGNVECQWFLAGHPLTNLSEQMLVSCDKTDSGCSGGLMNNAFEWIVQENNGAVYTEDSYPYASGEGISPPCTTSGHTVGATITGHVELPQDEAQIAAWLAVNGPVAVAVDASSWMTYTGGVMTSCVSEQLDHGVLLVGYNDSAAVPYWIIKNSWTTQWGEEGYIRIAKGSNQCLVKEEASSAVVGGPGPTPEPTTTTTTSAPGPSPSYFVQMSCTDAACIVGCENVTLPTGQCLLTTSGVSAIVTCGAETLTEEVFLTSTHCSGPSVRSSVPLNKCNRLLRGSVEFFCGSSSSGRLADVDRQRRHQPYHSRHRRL
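Sodium acetate buffer (100 mM, pH 5.5) containing 5 mM DTT and 0.01% Triton X-100 hosted 1.5 nM cruzain and test compound for 15 min at room temperature. Cleavage of 2 uM Z-FR-AMC was then tracked by fluorescence.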
Cruzain noTriton: inhibitors of Trypanosoma cruzi cruzain without detergent; P25779; purified cruzain, Z-FR-AMC fluorescence, no detergent; Potency, µM, without a hit: max response, negative = inhibition, actives largely listed as inhibitors; hit rate 2.3% among 200,000; AID 1476;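 note: plate controls were enzyme without inhibitor for no effect and buffer without enzyme for full effect; nearly all actives have a fitted effect of over 40% in size; top concentration of the series not given in the record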
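Purified cruzain at 1.5 nM, pre-incubated 15 min with compound at room temperature in 100 mM sodium acetate pH 5.5, 5 mM DTT, 0.00005% Triton X-100. Reaction started with 2 uM Z-FR-AMC; AMC fluorescence increase over 60 s gives rate.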
StopGo reporter: lowers the luciferase signal of an FMDV 2A StopGo reporter; AID 1159524; human cells with a luciferase reporter of 2A StopGo recoding; control for the full effect not named in the record; hit rate 1.2% among 410,000; Potency, µM (titrated, usually from 57.9 µM), without a hit: at the top dose signal change, negative = less light; active = well fitted falling curve with a large enough effect; inconclusive = small, poorly fitted or top-dose-only effect; inactive = no such curve, though single readings can be large or run the other way; tested in HEK293T cells; note: % is set by controls: 0 for no effect and ±100 for the full control effect; nearly all actives have a fitted effect of over 45% in size; luciferase light after 4 h
NS1 function inh: influenza NS1 inhibition; Potency, µM (doses to about 46.1 µM), for the others: at the highest dose activity, positive = more growth; S. cerevisiae slowed by influenza A NS1, growth recovery by OD600; hit rate 0.4% among 270,000; AID 2326; active means well fitted rising curve with a large enough effect; inconclusive means small, poorly fitted or top-dose-only effect; inactive means no such curve, though single readings can be large or run the other way; note: nearly all actives have a fitted effect of over 50% in size
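A cell-based growth assay was used: compounds that relieve NS1-induced slow growth of budding yeast raise OD600. Assay medium was yeast nitrogen base with ammonium sulphate and -URA supplement, pH 6.0, with 2% galactose.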
LASV entry inh: blocks Lassa virus binding to or entry into cells; hit rate 1.2% among 300,000; Lassa virus pseudotype entry inhibition, cell reporter; control for the full effect not named in the record; Potency, µM (titrated, usually from 37.9 µM), inactives show at the top dose activity change, negative = inhibition, usual class: inhibitors; active means well fitted inhibition curve with a large enough effect; inconclusive means small, poorly fitted or top-dose-only effect, or effect the other way; inactive means flat fitted curve, though single readings scatter; tested in HEK293 cells; note: % is set by controls: 0 for no effect and ±100 for the full control effect; nearly all actives have a fitted effect of over 50% in size; luciferase read-out
Marburg entry inh: Marburg virus entry inhibition; Potency, µM (top dose mostly 37.8 µM), for inactives: top-dose activity change, negative = inhibition, actives largely listed as inhibitors; Marburg virus pseudotyped entry inhibition, cell reporter; control for the full effect not named in the record; about a third of the inactives were read at about 46 µM; hit rate 1.8% among 300,000; AID 540276; active = well fitted inhibition curve with a large enough effect; inconclusive = small, poorly fitted or top-dose-only effect, or effect the other way; inactive = flat fitted curve, though single readings scatter; tested in HEK293 cells; about a fifth of its hits are not listed in these tables; note: % is set by controls: 0 for no effect and ±100 for the full control effect; luciferase read-out
SARS PLP yeast: SARS-CoV PLP inhibition in yeast; Potency, µM (series often up to 32.9 µM), for inactives: top-dose activity, positive = growth rescue; hit rate 0.19% among 330,000; S. cerevisiae expressing SARS-CoV PLpro, growth rescue; control for the full effect not named in the record; active means well fitted rising curve with a large enough effect; inconclusive means small, poorly fitted or top-dose-only effect; inactive means no such curve, though single readings can be large or run the other way; note: 0% is about no effect; nearly all actives have a fitted effect of over 55% in size; growth read by luminescence after 48 h
RE007 growth inh: less growth of the S. pombe RE007 Vpr strain; S. pombe RE007 Vpr strain, BacTiter-Glo ATP luminescence, 24 h; control for the full effect not named in the record; Potency, µM (highest dose often 92.2 µM), for the others: at the highest dose activity change, negative = less growth; hit rate 0.21% among 360,000; AID 651644; active = well fitted falling curve with a large enough effect; inconclusive = small, poorly fitted or top-dose-only effect; inactive = no such curve, though single readings can be large or run the other way;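 note: % is set by controls: 0 for no effect and ±100 for the full control effect; nearly all actives have a fitted effect of over 50% in size; the assay follows cell death caused by Vpr and the record does not say whether a fall means rescue or toxicity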
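Fission yeast strain RE007, carrying one chromosomally integrated HIV-1 vpr copy, was seeded at OD 0.01 in PMG+AL medium with 23 nL pinned compound. After 24 h at 30 °C and 99% humidity, viability was read by BacTiter-Glo luminescence.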
* hit, by the source's call; ? = inconclusive; / = no result given; & = joins results of further samples; [ ] = remark or other dose. Unless noted, calls come from the whole dose curve; as a rule, active = well fitted curve in the direction sought with a large enough effect; inconclusive = small, poorly fitted or top-dose-only effect, or another doubt; inactive = no such curve, though single readings can be large; an effect the other way counts as inactive or inconclusive. Potency is the fitted concentration of half-maximal effect.

SMILES | Cruzain inh Det | Cruzain noTriton | StopGo reporter | NS1 function inh | LASV entry inh | Marburg entry inh | SARS PLP yeast | RE007 growth inh
O=C(Nn1c(SCc2ccccc2F)nc2ccsc2c1=O)c1ccccc1 | -5.4% | -23% | -18% | 23% | ? | 4% | -19% | 29%
CCC(=O)c1cn(CC(=O)NCc2cccnc2)c2ccccc12 | 4.1% | -2% | / | -2% | 22% | -4% | -1% | -2%
CCOC(=O)/C(C#N)=C\c1cccnc1 | / | / | -5% | 6% | ? | / | -1% | 1%
CCOC(=O)c1sc(NC(=O)c2ccc(OC(C)=O)cc2)nc1C | / | / | 37%[activator] | -1% | / | ? | 10% | -29%
Cc1nc(C(=O)N2CCCC(C(=O)c3ccc(Cl)cc3)C2)cs1 (stereo not given) | / | / | -22% | -3% | / | / | 0% | 4%
O=C(c1ccc2c(c1)OCCO2)N(Cc1cccnc1)c1nc2c(F)cccc2s1 | -0.6% | 3% | -30% | / | 0%[46.1 µM] | / | / | /
COc1ccc(C(CNC(=O)c2cccc(S(=O)(=O)Nc3ccccc3OC)c2)N2CCCCC2)cc1 (stereo not given) | / | / | -19% | / | ? | ? | / | -2%
CCCCNC(=O)/C=C/c1ccc(OC)c(Br)c1 | 2.7% | -4% | 39%[activator] | 0% | ? | -4% | -21% | 5%
O=C(C1CCC(CNS(=O)(=O)c2cccs2)CC1)N1CCN(c2ccc(F)cc2)CC1 (stereo not given) | / | / | ? | -11% | ? | 3.2µM* | 2% | 4%
Fc1ccc(N/N=C/c2ccncc2)c(F)c1 | -3.2% | -21% | 25% | -4% | 1% | 33% | -43% | 119%
C1=C(c2c[nH]c3ccccc23)CCNC1 | -5.1% | 1% | / | -18% | / | 3% | -1% | /
N#Cc1ccccc1CSc1ccccn1 | -2.4% | -3% | / | 2% | -10% | 15% | -2% | -10%
Cc1ccc(S(=O)(=O)NCCNC(=O)c2cc(OCC(F)(F)F)ccc2OCC(F)(F)F)cc1 | -1.2% | -5% | -7% | 15% | 6% | ? | 5% | 5%
N#Cc1ccc(OCC(=O)OCC(=O)Nc2cc(C(F)(F)F)ccc2N2CCOCC2)cc1 | -6.7% | 14% | -12% | -22% | -9%[46.1 µM] | 4%[46.1 µM] | 3% | -7%
COc1ccc(/C=C/C(=O)NC(=S)NNC(=O)c2cnccn2)cc1 | / | / | -9% | 4% | / | / | ? | 6%
O=C(CNC(=O)c1ccc(Cl)cc1)c1ccc(Br)cc1 | / | / | 11% | -1% | -1%[46.1 µM] | 3%[46.1 µM] | -2% | -7%
COc1cccc(NC(=S)N2CCN(C)CC2)c1 | / | / | -6% | -9% | 23%[46.1 µM] | 18%[46.1 µM] | 0% | 2%
CCCNc1c(NS(=O)(=O)c2ccc(C)cc2C)c(=O)oc2ccccc12 | / | / | -8% | 5% | / | / | -1% | -8%
CC(=O)CSc1cc(-c2ccccc2)nc2ncnn12 | / | / | -45% | 1% | 11%[46.1 µM] | 3%[46.1 µM] | 0% | -3%
CCOC(=O)CNS(=O)(=O)c1ccc2c3c(cccc13)C(=O)N2CC | / | / | 83%[activator] | / | / | -2%[46.1 µM] | 1% | -5%
Cc1ccc(N2C(=O)N(CC(=O)Nc3ccc(C)cc3Cl)C(=O)C2C)cc1 (stereo not given) | / | / | -2% | / | 5%[46.1 µM] | -3% | -10% | 7%
C/C(=N\NC(=O)c1ccn(C)n1)c1cccc(NC(=O)c2ccncc2)c1 | -3.5% | -3% | -9% | 5% | 9% | -9% | 0% | 18%
COc1cccc(C2C(C(=O)Nc3ccccc3)=C(C)Nc3nc(-c4ccccc4)nn32)c1OC (stereo not given) | -5.9% | ? | -8% | / | 10%[46.1 µM] | -28%[46.1 µM] | / | /
COc1cc(OC)cc(C(=O)Nc2ccc(C(=O)NCC3CCCO3)cc2)c1 (stereo not given) | / | / | -15% | 2% | 0% | -3% | 6% | 0%
Cc1cc(C)c(NC(=O)CN2CCOCCOCCOCCOCC2)c(C)c1 | / | / | -8% | / | -2% | 13% | / | 0%
CCC(=O)c1ccc(OCC(=O)OCC(=O)N2CCCc3ccccc32)cc1 | / | / | -6% | / | 10% | 14%[46.1 µM] | -1% | -5%
Cc1occc1C(=O)NNC(=O)C1CCCC1 | / | / | -7% | / | -20% | 3% | -1% | 0%
Cc1csc(NC(=O)c2ccc(N3CCCC3=O)cc2)n1 | / | / | -78% | / | ? | 1.6µM* | 1% | -16%
Cc1cc(C)c(OCC(=O)Nc2nnc(C3CC3)s2)c(C)c1 | / | / | -5% | / | -2% | 10%[46.1 µM] | 5% | 24%
Cn1c(SCC(N)=O)nnc1-c1ccc(S(=O)(=O)N2CCCC2)cc1 | / | / | 7% | 4% | -17% | ? | 0% | -6%
CC1CCN(C(=O)N[C@@H](Cc2ccccc2)C(=O)O)CC1 | -1.7% | -4% | 8% | 9% | 9% | 17% | 1% | 12%
O=C(NCC(c1ccc2c(c1)OCO2)N1CCN(c2ccccc2)CC1)C(=O)Nc1ccccc1 (stereo not given) | 0.0% | -7% | -1% | / | ? | / | / | /
CC(=O)NC1(NC(C)=O)CCN(C)CC1 | / | / | -14% | 6% | 12% | 16%[46.1 µM] | 0% | -12%
CN(C)P1(N(C)C)=Nc2c(c(N)nn2C)C(c2ccccc2)=N1 | -2.5% | 13% | 13% | 0% | 7%[46.1 µM] | ? | 5% | -2%&6%
CCC(C)(C)n1nnnc1C(C(C)C)N(CCCO)Cc1cc2cc(C)ccc2[nH]c1=O (stereo not given) | 2.1% | ? | ? | -7% | -16% | ? | 6% | 8%
COC(=O)c1ccc(CO/N=C2\CCCc3nonc32)cc1 | / | / | 59%[activator] | / | 2% | ? | 1% | 8%
CCC(C)[C@H](NC(=O)[C@@H]1Cc2ccccc2CN1)C(=O)Nc1ccc2c(c1)OCO2 (stereo not given in full) | / | / | 14% | -6% | / | / | 2% | 11%
COC(=O)c1ccc(NC(=O)CCCC(=O)OCC(=O)c2ccc(Cl)cc2)cc1 | -1.4% | 0% | -12% | / | 2%[46.1 µM] | 3%[46.1 µM] | / | /
COc1ccc(CCNS(=O)(=O)c2ccc(Br)cc2)cc1 | / | / | 49%[activator] | -43% | -23%[46.1 µM] | 3%[46.1 µM] | -8% | 33%
CCOc1c(CNCCCSc2nc(C)cc(C)n2)cccc1OC | / | / | 1% | 2% | / | / | -5% | 4%
COc1ccc(CN2C(=O)c3cccnc3C2=O)cc1S(=O)(=O)N1CCOc2ccc(Cl)cc21 | / | / | 0% | -5% | / | / | 4% | 12%
Cc1cc2nc(-c3ccccc3)cc(=O)n2[nH]1 | / | / | -20% | 3% | -20% | -24% | -1% | -6%
Cc1sc(NC(=O)CN2CCCC2)nc1-c1ccc2c(c1)CCN2C(=O)c1ccc(F)cc1 | / | / | -7% | 9% | ? | -28%[46.1 µM] | -2% | 6%
O=C(O)c1ccc(N2C(=O)CC(N3C(=O)/C(=C/c4ccc(Cl)cc4)SC3=S)C2=O)cc1 (stereo not given) | / | / | -26% | -5% | / | / | 0% | 2%
Cc1ccc(C)c(OCC(O)CN2CCC(C)CC2)c1C (stereo not given) | 3.4% | -6% | -26% | 1% | -17% | ? | 0% | 0%
NC(=O)C1(N2CCCCC2)CCN(C(=O)c2cccs2)CC1 | 1.3% | 2% | -11% | 2% | / | 0% | 4% | -9%
CN(C)S(=O)(=O)Nc1cccc(-c2cn3c(n2)SCC3)c1 | / | / | 10% | 4% | / | / | 8% | 17%
Cc1sc2nc(C3CC3)nc(SCC(=O)N3CC(=O)Nc4ccccc43)c2c1C | -1.8% | 5% | / | ? | -22% | ? | -2% | 8%
COc1ccc(CCNC(=O)c2cccs2)cc1 | / | / | 14% | -18% | ? | ? | -5% | 19%
CCSc1nc(-c2ccc(OC)cc2)ccc1C#N | -13% | -4% | -24% | -5% | -16% | -28% | -15% | -20%
O=C(CSc1nnc(NC(=O)C2CC2)s1)Nc1cccc(F)c1 | / | / | -25% | -1% | 0% | ? | 13% | 0%
Cc1cc(C=O)c(C)n1CC1CCCO1 (stereo not given) | 3.4% | 5% | 24% | 7% | 1% | 4%[46.1 µM] | 2% | 2%
COc1ccc(-c2noc(CCCC(=O)NC3CCCCC3)n2)cc1 | / | / | -22% | -20% | -30%[46.1 µM] | ? | -2% | -21%
O=C(Nc1cc(Cl)cc(Cl)c1)C1CCCC1 | / | / | ? | -25% | -10% | -20% | -7% | -12%
CCn1c(COc2cccc(OC)c2)nnc1SCC(=O)N1CCOCC1 | 2.4% | 2% | -3% | -3% | 1% | -3% | 4% | 3%
Cc1ccc(C(=O)Oc2oc(-c3ccccc3)nc2C=Nc2ccc(N(C)C)cc2)cc1 | 28µM* | 25µM* | -16% | 19% | -15% | ? | -1% | -7%
COc1cc(CN2CCC(n3nccc3NC(=O)CCCc3ccccc3)CC2)ccc1F | / | / | -6% | ? | / | / | 4% | 11%
Cc1[nH]n(-c2ccccc2)c(=S)c1C=NCCCN=Cc1c(C)[nH]n(-c2ccccc2)c1=S | -11% | ? | -25% | 26% | 4% | ? | -2% | -23%
CC(C)(C)c1ccc(OCC(=O)N/N=C/c2ccc(N3CCOCC3)cc2)cc1 | -13% | ? | 0% | 20% | 0.092µM* | -23% | 2% | /
COc1ccccc1CCNC(=O)C1CCCO1 (stereo not given) | 2.3% | -11% | -15% | 1% | 26% | 29% | 0% | -7%
New compounds follow:
SMILES | Cruzain inh Det | Cruzain noTriton | StopGo reporter | NS1 function inh | LASV entry inh | Marburg entry inh | SARS PLP yeast | RE007 growth inh
Cc1nn(C)c2c1c(C(F)(F)F)cc(=O)n2Cc1ccc(Br)cc1F | -3.3% | -15% | -19% | / | -3%[46.1 µM] | / | / | /
CC(=O)c1cc(CN2CCC(N3CCC(C(=O)N4CCCC4)CC3)CC2)cs1 | / | / | -12% | 6% | 0% | ? | 1% | 5%
O=C(C1=C(O)C(=O)N(CCCN2CCOCC2)C1c1ccccn1)c1cccs1 (stereo not given) | -4.7% | 2% | / | -12% | / | -1% | -9% | /
Cc1nnc(NC(=O)c2ccc3ccccc3c2)o1 | 1.6% | 1% | 22% | -75% | ? | -30% | -13% | -25%

Screens (PubChem BioAssay)
